AID504770 = growth inhibitors of E. coli YBA685 in a screen for V. cholerae RctB (chromosome II replication) inhibitors. AID 504770. E. coli YBA685 rctB-dependent plasmid, OD600 growth, 3 h; hits give low values. z-score (concentration not given with the values). actives 0.27% (n = 130,000);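 active = z-score under -2 on both plates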;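 also: wells of about 30 µL received 100 nL stock; score is relative to mean and SD of the test wells; the first replicate is given; strong numbers were not always called active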
Ba CapD inh = CapD enzyme inhibition | purified CapD enzyme, fluorescence intensity read-out; hits give low values; some hits fall short of the stated cut | z-score (test concentration not listed) | actives 0.23% (n = 140,000) | AID 492967;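 active = z-score under -4 in either of two replicates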;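 also: stock transfer was 100 nL into about 40 µL; score is relative to mean and spread of the plate; one replicate is shown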
Active calls of the source: *; i = inactive; / = not tested or not shown. Not all compounds are listed, so the mix of outcomes need not match the whole.

SMILES | AID504770 | Ba CapD inh
O=C(COC(=O)c1ccccc1Br)NCC1CCCCC1 | -0.8 | -0.26
CCOC(=O)c1c(C(C)(C)C)oc2ccc(OCC(=O)OC)cc12 | -0.4 | -0.68
Nn1c(NNC(=O)c2ccccc2)nnc(-c2cccs2)c1=O | 0.6 | /
OC(Cn1cnc(-c2ccccc2)c1-c1ccccc1)Cn1c2ccc(Br)cc2c2cc(Br)ccc21 (centres undefined) | / | 0.33
Cc1cc(C)n2nc(CNS(=O)(=O)c3cccc4nsnc34)nc2n1 | -0.45 | 0.55
CCOC(=O)c1cnc2c(ccc3ccccc32)c1NCCN1CCOCC1 | 1.8 | 5.8
CCc1cccc2c(N=O)c(O)[nH]c12 | -0.05 | -0.86
CC1CC(C)CN(CCC(=O)Nc2ccccc2F)C1 (centres undefined) | 0.2 | /

Further compounds follow:
SMILES | AID504770 | Ba CapD inh
O=C(NCCSCc1ccco1)Nc1ccc(OC(F)(F)F)cc1 | / | 0.19
CCN(CC(=O)Nc1cccc(OC)c1)Cc1cc(=O)oc2cc(NC(C)=O)ccc12 | 1.8 | /
CCOc1ccc(Cl)cc1S(=O)(=O)N1CCCC(C)C1 (centres undefined) | 0.45 | 0.29
COc1ccc2oc(=O)cc(CN3CCCCC3)c2c1 | -0.55 | 4.9
CC(c1nnc(SCc2cc(=O)n3ccsc3n2)n1-c1ccc(Cl)cc1)N1CCCCC1 (centres undefined) | -0.1 | /
NCc1ccsc1 | -1.9 | -0.34
COC(=O)c1cc(S(=O)(=O)NC2CCCCC2C)c[nH]1 (centres undefined) | -1.2 | -0.8
CSc1nc(-c2ccc(Cl)cc2)[nH]c(=O)n1 | / | 0.1

The list goes on:
SMILES | AID504770 | Ba CapD inh
CC(C)CCN(CCC(C)C)S(=O)(=O)c1cc2c(c([N+](=O)[O-])c1)-c1c(cc(S(=O)(=O)N(CCC(C)C)CCC(C)C)cc1[N+](=O)[O-])C2=NO | / | -0.05
CC12CC(NC(=O)N1c1ccc(C(=O)N3CCN(Cc4ccc5c(c4)OCO5)CC3)cc1)c1cc(Cl)ccc1O2 (centres undefined) | -0.2 | -0.14
CCOC(=O)C1=NN(c2ccccc2)C(c2ccccc2)N1C(C)(C)C (centres undefined) | / | -0.17
COC(=O)Cn1c2ccc(C)cc2c2nc3ccccc3nc21 | -0.5 | 0.18
Cc1cc2nc3c(c(C(F)(F)F)n2n1)CCCC3 | -0.3 | -0.74
CN(C(=O)Cn1c(=O)n(CC(=O)NCCc2ccccc2)c(=O)c2sccc21)C1CCCCC1 | -0.35 | 0.42
Clc1ccc(-c2nc3cc(Cl)c(Cl)cc3n2Cc2ccccc2)cn1 | / | 0.58
COc1ccc(C2/C(=C(\O)c3ccc(Br)cc3)C(=O)C(=O)N2CCCN2CCOCC2)cc1 (centres undefined) | / | -0.55

(next part)
SMILES | AID504770 | Ba CapD inh
Cn1c(-c2ccc(Br)cc2)n[nH]c1=S | -0.55 | 0.24
Cc1ccc(C2=NNC(=S)C3=CNc4ccccc4N32)cc1 | 0.3 | -0.8
CCC(C)(C)C1CCc2oc3c(cc(NS(=O)(=O)c4ccccc4)c4ccccc43)c2C1 (centres undefined) | / | -0.3
O=C(O)c1cc(Br)cc(Br)c1 | / | 0.035
COc1ccc(OCC(O)CNC(=O)c2ccc(N(C)C)cc2)cc1 (centres undefined) | -0.9 | -0.14
Cc1ccc2c3c(c(N)c(=O)[nH]c13)-c1ccccc1C2=O | / | 0
Fc1ccc(N2CCN(Cc3c[nH]c4ccccc34)CC2)cc1 | 1.8 | -1
CCCCn1c(-c2nonc2N)nc2ccccc21 | 2 | -0.58

7 records picked at random from those above, as already listed:
SMILES | AID504770 | Ba CapD inh
Fc1ccc(N2CCN(Cc3c[nH]c4ccccc34)CC2)cc1 | 1.8 | -1
CCC(C)(C)C1CCc2oc3c(cc(NS(=O)(=O)c4ccccc4)c4ccccc43)c2C1 (centres undefined) | / | -0.3
Cc1ccc2c3c(c(N)c(=O)[nH]c13)-c1ccccc1C2=O | / | 0
CCCCn1c(-c2nonc2N)nc2ccccc21 | 2 | -0.58
Cn1c(-c2ccc(Br)cc2)n[nH]c1=S | -0.55 | 0.24
O=C(O)c1cc(Br)cc(Br)c1 | / | 0.035
Cc1ccc(C2=NNC(=S)C3=CNc4ccccc4N32)cc1 | 0.3 | -0.8

Other results follow.
SMILES | AID504770 | Ba CapD inh
Cc1ccc(/C=C/S(=O)(=O)N2CCC(C(=O)O)CC2)cc1 | -0.3 | /
O=C(Nc1csnc1-c1c(Cl)cccc1Cl)NN1CCOCC1 | 0.05 | 0.34
Cc1cc(C)nc(-n2nc(C)cc2NC(=O)CN2CCCC2)n1 | -0.2 | /
COCCOC(=O)C1=C(C)NC2=C(C(=O)CC(c3ccccc3)C2)C1c1cc2c(cc1Br)OCO2 (centres undefined) | / | 18
CCOc1ccccc1N/C(SCc1cccc([N+](=O)[O-])c1)=C(/C#N)C(=O)NCc1ccccc1 | / | 0.73
CCC(Sc1nc2cc(OC)c(OC)cc2c(=O)n1Cc1ccco1)C(=O)Nc1cccc(OC)c1 (centres undefined) | 0.1 | 0.1
O=C(O)CCC(=O)c1ccccc1 | -0.5 | 0.17
Cc1cc(-n2ncc(C#N)c2N)nc2ccccc12 | -0.45 | -0.17

Next part:
SMILES | AID504770 | Ba CapD inh
CC1CCCCN1C(=S)NC(=O)c1cccs1 (centres undefined) | 1.4 | /
CCOc1ccc2c(c1)-c1c(ssc1=S)C(C)(C)N2C(=O)c1cccc([N+](=O)[O-])c1 | / | -0.57
CS(=O)(=O)c1ccc(CC(=O)N(C2CC2)C2CCN(Cc3ccccc3)CC2)cc1 | / | -0.23
COc1ccc(C)cc1-n1c(SCC(=O)N(C)C2CCS(=O)(=O)C2)nc2ccccc2c1=O (centres undefined) | -0.25 | /
O=c1c2cc3sccc3n2cc(-c2ccccc2)n1-n1cccc1 | 0.15 | /
CN1CCN(C(=O)CSc2nc3ccccc3n2C)CC1 | 0.65 | /
CSc1ccc(C2C(C#N)=C(N)OC(C)=C2C(C)=O)cc1 (centres undefined) | / | 3.3
C=CCNC(=O)C1CCC(=O)N1C1CCCCC1 (centres undefined) | 0 | 0.18

Continued:
SMILES | AID504770 | Ba CapD inh
O=c1/c(=C/c2cc3c(cc2Br)OCO3)sc2nc3cc(Br)cnc3n12 | / | 0.77
Cc1cc(C)n(C(=O)CCC(=O)NCc2ccccc2)n1 | 0.25 | -0.18
C[N+](C)=C/C=C(\N)SCc1cc(F)cc2c1OCOC2 | / | -3.7
Cc1c(C)c(C)c(C(C)O)c(C)c1C (centres undefined) | / | 0.48
O=C(O/N=C\c1ccc(N2CCCCC2)c([N+](=O)[O-])c1)c1cccc(Cl)c1 | / | -1.1
Nn1c(SCc2csc(-c3ccccc3)n2)nnc1-c1cccs1 | 1.6 | /
O=C(Nc1ccc(-c2noc(COc3ccc(Br)cc3)n2)cc1)c1ccco1 | / | -0.86
CN(Cc1ccccc1)Cc1cccnc1 | -0.3 | 0.08

Carrying on:
SMILES | AID504770 | Ba CapD inh
C/C(=N\O)C(=O)NCC1CCNCC1 | -0.9 | 0.52
CCN(CC)C(=O)CSc1nnc(C(C)N(C)C)n1-c1ccc(F)cc1 (centres undefined) | -0.65 | /
COc1ccc2nnc(-c3ccc(C(F)(F)F)cc3)n2n1 | / | 2
CN(C)c1ccc(C(=S)N2CCN(c3ccccc3F)CC2)cc1 | -0.4 | -0.09
COc1cc(CN2CCN(c3cccc(Cl)c3)CC2)ccc1O | 2.5 | -0.35
Cc1cc(C)nc(N2CCC(NC(=O)OC(C)(C)C)CC2)n1 | -0.4 | 4.7
Cc1nc2ccc(F)cc2c2c1COC2 | -0.8 | 4.7
COC(=O)c1ccc(NC2CCCCC2)c(N)c1 | -1.2 | 68

(continued)
SMILES | AID504770 | Ba CapD inh
Cc1ccccc1C1CCC(=O)NC1 (centres undefined) | -0.15 | 0.57
CCc1cc2c3c(c1)/C(=C1/SC(N)=NC1=O)C(=O)N3C(C)(C)C=C2C | 1.1 | 0.8
O=C(NCCn1ccc2ccccc21)c1cccs1 | -0.1 | -0.69
O=C(NCCCO)C(=O)Nc1ccc(Cl)c(C(F)(F)F)c1 | / | 1.3
CCCCc1ccc(C(=O)/C=C2\NC(=O)CS2)cc1 | 0.35 | /
COC(=O)/C(=C(/O)c1ccccc1)c1nc2ccccc2[nH]1 | -0.1 | /
COc1cc(OC)c(OC)cc1/C=C1/C(=O)N(c2cc(C)cc(C)c2)C(c2cccc([N+](=O)[O-])c2)S1(=O)=O (centres undefined) | / | -2.3
O=C(NCc1ccccc1Cl)c1cccnc1SCc1ccccc1Cl | / | -0.87

Following part
Every second line gives: AID504770	Ba CapD inh
Cc1ccc(NC(=O)CSc2nnc3ccccn23)c(C)c1
  0.35	i
Brc1ccc2cc[nH]c2c1
  /	-0.025
Clc1ccccc1C1=NC2=S(O1)OC(c1ccccc1Cl)=N2
  0.6	/
N#Cc1c2ccc(OCc3cccc(C(F)(F)F)c3)cc2n2ccccc12
  /	-0.46
CCC(=O)Nc1nc(-c2cccs2)nc2c1c(=O)oc1ccccc12
  /	-0.33
CSC1=N/C(=C\c2ccccc2O)C(=O)N1Cc1ccc(Cl)cc1
  2.8	-1.2
CC(=O)O[C@@H]1CC[C@]2(C)C3CC[C@]4(C)C(=O)CCC4C3CC[C@H]2C1 (some centres undefined)
  1.1	/
COc1cccc2sc(=NC(=O)c3cccc(C(F)(F)F)c3)n(C)c12
  -0.75	0.09
COc1cc(C2N(C)c3ccccc3-c3nc4ccccc4n32)cc(OC)c1OC (centres undefined)
  0.2	67
Cc1ccccc1-c1nnn(Cc2ccc(-c3nn[nH]n3)cc2)n1
  1.7	-0.85

New compounds follow.
Every second line gives: AID504770	Ba CapD inh
CCCc1[nH]nc2c1C1(CCN(C)CC1C)C(C#N)=C(N)O2 (centres undefined)
  1.1	0.08
Cc1cccc(NC(=O)c2cn(-c3ccccc3)nc2-c2cccnc2)c1
  0.5	0.73
COc1ccc2c(c1)-c1c(ssc1=Nc1cc(Cl)cc(Cl)c1)C(C)(C)N2
  /	-0.27
COC(=O)c1ccc2c(=O)n(CC3CCCO3)c(SCC(=O)NCCc3ccc(OC)c(OC)c3)nc2c1 (centres undefined)
  /	-0.72
O=C(NCc1ccccc1Cl)C1CCC(=O)N1Cc1ccc(F)cc1 (centres undefined)
  -0.35	0.09
O=c1/c(=C/c2c(F)cccc2Cl)sc2nc3ccccc3n12
  -0.3	-0.41
CCOC(=O)/C=C1\SCC(=O)N1CC(=O)N1CCN(S(=O)(=O)c2ccc3ccccc3c2)CC1
  0.55	/
O=C(Nc1ccc2c(c1)OCCO2)c1csc2c1CCCC2
  -0.2	-0.45
CN(C)/C=C/C(=O)c1cc2cnccc2[nH]c1=O
  /	-1.6
CCN(CC)N=Nc1ccc(NC(C)=O)cc1
  -2.9	/

New compounds follow.
Every second line gives: AID504770	Ba CapD inh
COc1ccc(C(=O)Nc2ccc(S(=O)(=O)Nc3nccnc3OC)cc2)cc1
  -1.8	0.3
COC(=O)/C=c1\sc2nc3ccccc3n2c1=O
  -2	-0.3
Cc1noc(C)c1Cc1c(C(=O)O)noc1C
  -1.7	/
O=C(c1ccccc1)c1cc(C(F)(F)F)cnc1C(=O)c1ccccc1
  /	-0.34
O=C(c1ccccc1)c1ccc2nc(-c3ccc(F)cc3)c(-c3ccc(F)cc3)nc2c1
  /	-0.42
CCOC(=O)Cn1nc2n(Cc3ccc(C)cc3)c3ccccc3n2c(=O)c1=O
  0.6	1.3
COC(=O)C12CC3(C)CC(C)(CC(C)(C3)C1)C2
  -0.6	/
Cn1ncc(C(N)=O)c1N
  -0.35	-0.75
CC1(C)C(=O)Nc2ccccc2N1C(=O)COC(=O)c1ccc(S(=O)(=O)N2CCCC2)cc1
  -0.4	/
Cn1nnc2c([nH]c3ccccc32)c1=O
  -0.2	/

The listing continues:
Every second line gives: AID504770	Ba CapD inh
COC(=O)C1=CN(CCc2ccccc2)C=C(C(=O)OC)C1C(=O)OC
  -0.4	61
Cc1csc2c(N3CCCCC3)ncnc12
  -0.4	-0.24
Cc1cc(C)n(-c2nnc(C)n2/N=C/c2cc(Cl)ccc2F)n1
  /	-0.79
CCOC(=O)c1cnn(C(=O)COc2ccc(C(C)(C)C)cc2C(C)(C)C)c1N
  1.4	-1.1
CCc1ccccc1N(CC(=O)NC)S(C)(=O)=O
  -1.1	0.14
CCCC(=O)Oc1ccc2c(C)cc(=O)oc2c1
  0.05	25
COc1ccc(CN2C(=O)c3[nH]nc(-c4ccccc4O)c3C2c2ccc(O)cc2)cc1 (centres undefined)
  -0.1	-0.35
O=C(C1=C(O)C(=O)N(CCc2ccccc2)C1c1ccccc1)c1cccs1 (centres undefined)
  0.15	-1.1
CCN(Cc1nc2ccccc2c(=O)[nH]1)Cc1nc2cc(OC)c(OC)cc2c(=O)[nH]1
  0.05	/
CCOC(=O)C1=C(N)CC(C(=O)OCC)=C(N)C1
  /	0.26

Additional entries follow:
Every second line gives: AID504770	Ba CapD inh
COc1ccc(OC(C)C(=O)Nc2cccc(C)n2)cc1 (centres undefined)
  2.5	-0.23
COC(=O)c1sc(=S)n(-c2cccc(C)c2)c1N
  -0.25	0.065
COc1ccc(C2CC(=O)C3=C(C2)NC(C)=C(C(=O)OCCOc2ccccc2)C3c2cccc(O)c2)cc1 (centres undefined)
  /	17
COc1ccc(C2=NN(C(=O)c3cc(OC)c(OC)c(OC)c3)C(c3ccccc3OC)C2)cc1OC (centres undefined)
  /	0.29
CCOc1ccc(C2Oc3c(OCC)cccc3C3CC(c4cccs4)=NN32)cc1 (centres undefined)
  /	1.2
CCCCN(C(=O)c1ccc(Cl)cc1)C1=CC2CCC(C1)N2C (centres undefined)
  /	-0.42
Clc1cccc(/C=N/n2c(-c3cccs3)csc2=NCCN2CCOCC2)c1
  2.2	/
O=S(=O)(NC1C2CC3CC(C2)CC1C3)c1ccc(Cl)cc1Cl (centres undefined)
  /	0.17
O=C(NCC1CCCO1)c1ccc(N2CCOCC2)nc1 (centres undefined)
  0.65	0.04
